From PubChem BioAssay
AmpC nodet inh: blocks E. coli AmpC beta-lactamase in absence of detergent; hit rate 1.8% among 71,000; AID 585; Potency, µM (titrated, usually from 28.7 µM), without a hit: at the highest dose activity change, negative = inhibition; AmpC nitrocefin hydrolysis, absorbance 480 nm, no detergent; potencies from a single point are estimates; active = falling curve, for most hits resting on a single point; inconclusive = weak or doubtful change; inactive = flat or rising curve; further: % of control where 0% means no effect; about half of the hits show no inhibition at the top dose; a quarter of the inactives give rising signals
Target sequence (P00811 whole entry, looked up): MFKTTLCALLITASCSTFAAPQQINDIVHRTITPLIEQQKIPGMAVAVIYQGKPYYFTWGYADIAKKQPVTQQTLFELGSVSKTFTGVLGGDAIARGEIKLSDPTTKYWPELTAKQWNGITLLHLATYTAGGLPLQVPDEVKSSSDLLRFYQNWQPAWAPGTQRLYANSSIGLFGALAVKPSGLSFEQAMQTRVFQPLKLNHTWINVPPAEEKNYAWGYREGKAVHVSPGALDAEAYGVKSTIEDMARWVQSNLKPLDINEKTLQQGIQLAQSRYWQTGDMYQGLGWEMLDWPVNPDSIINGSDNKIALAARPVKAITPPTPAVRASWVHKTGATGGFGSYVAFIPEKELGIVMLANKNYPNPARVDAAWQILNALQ
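Enzyme, pH 7.0 phosphate. Compound titrations were pre-incubated with AmpC for 15 min at room temperature before nitrocefin (stock 800 uM) addition; product formation was recorded at 480 nm every 20 s for 4 min.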
The depositor's hits bear a star; & = joins results of further samples; [ ] = remark or other dose. Potency means the concentration at half of the fitted maximal effect. Only part of the results is shown; the hit share may differ from the screen's.

The opening seven compounds, ahead of the listing:
How did COc1ccc(NC(=O)CSc2nnc(CNC(=O)c3ccco3)o2)c(OC)c1 do in these assays?
AmpC nodet inh: -0.8%

Results for Cc1cc(NC(=O)CSc2nc3c(c(=O)n2CCc2ccccc2)SC(C)C3)no1 (stereo not drawn) ?
AmpC nodet inh: -10.9%

What do the screens show for `O=C(Nc1cccc2c1CCCC2)C1CCN(C(=O)NC2CCCCC2)CC1`?
AmpC nodet inh: 12.1%

What do the screens show for `CCOC(=O)c1c(C)c(C(=O)NCC2CCCO2)c(C)n1CC` (stereo not drawn)?
AmpC nodet inh: 3.9%

What do the screens show for `CN1CCN(S(=O)(=O)c2ccc(Br)s2)CC1`?
AmpC nodet inh: -9.3%

What do the screens show for `Cc1ccc(NC(=O)C2CCCN2S(=O)(=O)c2ccc(F)cc2)c(C)c1` (stereo not drawn)?
AmpC nodet inh: 10.8%

What do the screens show for `CCCCN(C(=O)NC(=O)Nc1ccccc1OCC)S(C)(=O)=O`?
AmpC nodet inh: -11.8%

The list itself, repeating the preview:
How did COc1ccc(NC(=O)CSc2nnc(CNC(=O)c3ccco3)o2)c(OC)c1 do in these assays?
AmpC nodet inh: -0.8%

Results for Cc1cc(NC(=O)CSc2nc3c(c(=O)n2CCc2ccccc2)SC(C)C3)no1 (stereo not drawn) ?
AmpC nodet inh: -10.9%

What do the screens show for `O=C(Nc1cccc2c1CCCC2)C1CCN(C(=O)NC2CCCCC2)CC1`?
AmpC nodet inh: 12.1%

What do the screens show for `CCOC(=O)c1c(C)c(C(=O)NCC2CCCO2)c(C)n1CC` (stereo not drawn)?
AmpC nodet inh: 3.9%

What do the screens show for `CN1CCN(S(=O)(=O)c2ccc(Br)s2)CC1`?
AmpC nodet inh: -9.3%

What do the screens show for `Cc1ccc(NC(=O)C2CCCN2S(=O)(=O)c2ccc(F)cc2)c(C)c1` (stereo not drawn)?
AmpC nodet inh: 10.8%

What do the screens show for `CCCCN(C(=O)NC(=O)Nc1ccccc1OCC)S(C)(=O)=O`?
AmpC nodet inh: -11.8%

What do the screens show for `CC(=O)c1ccc(OC(=O)c2ccc(Br)o2)cc1`?
AmpC nodet inh: 4.9%

What do the screens show for `CCC(Oc1ccccc1)C(=O)Nc1nc2ccccc2[nH]1` (stereo not drawn)?
AmpC nodet inh: -12.4%

Results for Nc1ccc([N+](=O)[O-])cc1[N+](=O)[O-] ?
AmpC nodet inh: -7.8%

What do the screens show for `CC(=NCC1CCCO1)c1c(O)n(-c2ccc(Cl)cc2)c(=O)[nH]c1=O` (stereo not drawn)?
AmpC nodet inh: -4.0%

Results for Cn1cnnc1SCc1ccc(C#N)cc1 ?
AmpC nodet inh: -1.3%

Results for Cc1cc(C(=O)Nc2nc3c(s2)CCCC3)no1 ?
AmpC nodet inh: -2.5%

Results for CCOC(=O)NCc1ccc(Cl)c(Cl)c1 ?
AmpC nodet inh: 2.8%

How did Cc1ccc(C(C)C)c(OCCNS(C)(=O)=O)c1 do in these assays?
AmpC nodet inh: 19.6%

Results for O=C(SCc1cccc2ccccc12)c1ccc(Cl)cc1 ?
AmpC nodet inh: -9.9%[5.75 µM]

What do the screens show for `CC(Oc1ccc(Cl)cc1Cl)c1nc(-c2ccccn2)no1` (stereo not drawn)?
AmpC nodet inh: 72.7%

Results for Cc1nc(N)c(C#N)c(-c2cccnc2)c1C ?
AmpC nodet inh: -10.1%

What do the screens show for `Cn1nc(-c2ccc(C(=O)Nc3cccnc3)cc2)c2ccccc2c1=O`?
AmpC nodet inh: 6.9%

What do the screens show for `Cn1c(=O)c2c(nc(Br)n2C)n(C)c1=O`?
AmpC nodet inh: 7.3%

Results for CCn1c(SCC(=O)NCCOC)nc2sc3c(c2c1=O)CCCC3 ?
AmpC nodet inh: 63.6%

How did COc1ccc(-c2cc(C(=O)Nc3ccc(C)cc3)no2)cc1 do in these assays?
AmpC nodet inh: -18.9%

How did CCC(C)Nc1nc(OCC(F)(F)F)nc(OCC(F)(F)F)n1 (stereo not drawn) do in these assays?
AmpC nodet inh: -4.0%

What do the screens show for `Cc1ccc2c(c1)cc(CN(Cc1ccco1)C(=O)COc1ccccc1)c1nnnn12`?
AmpC nodet inh: 38.4%

How did Brc1ccc(-c2cnc(-c3cccs3)o2)cc1 do in these assays?
AmpC nodet inh: 24.2%

Results for O=C(C1CCN(S(=O)(=O)c2cccc3cccnc23)CC1)N1CCN(C2CCCC2)CC1 ?
AmpC nodet inh: 78.4%

Results for O=C(COC(=O)c1ccc(Br)o1)NCCCc1ccccc1 ?
AmpC nodet inh: 3.9%

How did Cc1ccc(C)c2[nH]c(=O)c(C(c3nnnn3Cc3ccco3)N3CCc4ccccc4C3)cc12 (stereo not drawn) do in these assays?
AmpC nodet inh: 34.2%

What do the screens show for `O=C(Nc1cccc(OC(F)(F)F)c1)c1ccc(Br)o1`?
AmpC nodet inh: -17.5%

How did Cn1c(=O)oc2cc(S(=O)(=O)N3CCC(C(=O)NCc4cccs4)CC3)ccc21 do in these assays?
AmpC nodet inh: 3.16µM*[single pt active]

How did c1ccc(N2CCN(c3ncnc4c3oc3ccccc34)CC2)cc1 do in these assays?
AmpC nodet inh: 11.5%

Results for Nc1nnnn1/N=C/c1ccccc1OCc1ccc(Cl)cc1Cl ?
AmpC nodet inh: inconclusive

What do the screens show for `Cc1nnc(SCC(=O)N2CCC(C(=O)Nc3nccs3)CC2)n1Cc1ccccc1`?
AmpC nodet inh: 77.5%

Results for CN(C)c1ccc(C2C=C(c3ccc(Cl)cc3OC(F)F)Nc3ncnn32)cc1 (stereo not drawn) ?
AmpC nodet inh: 14.7%

Results for CC(C)NC[C@@H](O)COc1ccc(COCCOC(C)C)cc1 ?
AmpC nodet inh: 26.6%

What do the screens show for `CCC(=O)Nc1nonc1-c1nc2ccccc2n1CC(C)C`?
AmpC nodet inh: -3.0%

How did CN(C)CCNC(=O)c1coc(=O)c(Br)c1 do in these assays?
AmpC nodet inh: -7.9%

Results for [O-][Br+2]([O-])O ?
AmpC nodet inh: -2.2%&-4.1%

What do the screens show for `C=CCn1c(NCCc2ccccc2)nc2c1c(=O)n(C)c(=O)n2C`?
AmpC nodet inh: 34.1%

What do the screens show for `O=C(Cc1cccs1)Nn1c(Cc2cccs2)nc2ccccc2c1=O`?
AmpC nodet inh: -11.1%

What do the screens show for `Cc1nc2[nH]c(=O)c3c(n2n1)NC1=C(C(=O)CC(C)(C)C1)C3c1ccc(F)cc1` (stereo not drawn)?
AmpC nodet inh: -10.7%

How did c1ccc(CC2CCN(Cc3nc(-c4ccccc4)no3)CC2)cc1 do in these assays?
AmpC nodet inh: 34.6%

What do the screens show for `COc1ccc(CN2CCN(C)CC2)cc1OCc1ccccc1`?
AmpC nodet inh: 9.4%

How did CN(C)/C=C1/C(=O)Nc2ccccc21 do in these assays?
AmpC nodet inh: -3.7%

How did O=C(Cn1c(=O)oc2ccccc21)c1ccccc1 do in these assays?
AmpC nodet inh: -5.5%

What do the screens show for `CC1(C)Cc2cccc(OCC(O)CN3CCN(c4ccccn4)CC3)c2O1` (stereo not drawn)?
AmpC nodet inh: 67.8%

What do the screens show for `CC(C)(C)OC(=O)N[C@H](Cc1ccccc1)C(=O)N1CCC(C(=O)O)CC1`?
AmpC nodet inh: -0.9%

What do the screens show for `CCN(C(=O)CSc1ccc2c(c1)OCCO2)C1CCS(=O)(=O)C1` (stereo not drawn)?
AmpC nodet inh: -9.3%

Results for CCCn1cc(SCC(=O)NCc2ccco2)c2ccccc21 ?
AmpC nodet inh: 9.7%

What do the screens show for `COc1ccc(Cc2nnc(SCc3nc4ccccc4c(=O)[nH]3)n2C)cc1`?
AmpC nodet inh: 10.6%

What do the screens show for `Nc1ncnc2nc(SCC(=O)N3CCN(c4ccccc4)CC3)[nH]c12`?
AmpC nodet inh: -1.7%

Results for CC1(C)Cc2c(C#N)c(N)sc(=S)c2CS1 ?
AmpC nodet inh: -13.6%

How did CCN1CCN(Cc2nc3c(c(=O)n(C)c(=O)n3C)n2CCCc2ccccc2)CC1 do in these assays?
AmpC nodet inh: 11.7%

What do the screens show for `CC(C)c1cc(C(=O)NC2CCCCC2)no1`?
AmpC nodet inh: 5.1%

How did CC(C)(C)c1cc(C(=S)N2CCN(CCO)CC2)cc(C(C)(C)C)c1O do in these assays?
AmpC nodet inh: 83.6%

How did COc1ccc(-c2cc(C(F)(F)F)n3nc(C(=O)O)nc3n2)cc1 do in these assays?
AmpC nodet inh: -7.0%

What do the screens show for `CC(C)(C)NC(=O)[C@@H]1CC[C@@H]2[C@@H]3CC[C@@H]4NC(=O)C=C[C@@]4(C)[C@H]3CC[C@]21C`?
AmpC nodet inh: 40.5%[12.8 µM]

Results for Cc1ccccc1-c1nccc(NCCN2CCOCC2)n1 ?
AmpC nodet inh: 19.0%

Results for O=C(c1ccco1)N1CCC2(CC1)CN(C(c1ccccc1)c1ccccc1)C2 ?
AmpC nodet inh: 90.6%

How did CC(=O)Nc1ccc(S(=O)(=O)NCc2csc(-c3cccnc3)n2)cc1 do in these assays?
AmpC nodet inh: -3.1%

How did CC(N)=NCc1cccc(CN)c1 do in these assays?
AmpC nodet inh: -3.3%&-3.3%

How did COC(=O)c1c(NC(=O)CN2CCC(C(N)=O)CC2)c2c(C)cccc2n1C do in these assays?
AmpC nodet inh: 4.8%

How did O=C(CC1Nc2ccccc2NC1=O)NCC1COc2ccccc2O1 (stereo not drawn) do in these assays?
AmpC nodet inh: 2.2%

Results for Cc1cc(N=Nc2ccccc2C)ccc1N ?
AmpC nodet inh: 5.5%

How did C[C@@](N)(/C=C\c1ccccc1)C(=O)O do in these assays?
AmpC nodet inh: 9.5%[5.75 µM]

How did Cc1cc(C)c(O)c(-c2cc(C(=O)Nc3ccc(S(=O)(=O)N4CCOCC4)cc3)[nH]n2)c1 do in these assays?
AmpC nodet inh: 63.4%

What do the screens show for `Cc1ccc(C)c(N)c1`?
AmpC nodet inh: -2.4%

Results for CC(=O)NC(C)(C)C1CC=C(C)/C(=N\O)C1 (stereo not drawn) ?
AmpC nodet inh: -0.4%

How did CCOC(=O)c1c(C)n(CCO)c2ccc(O)cc12 do in these assays?
AmpC nodet inh: 7.1%

Results for CC1(C(=O)NC2CCCCCC2)CCC(=O)N1Cc1ccc2c(c1)OCO2 (stereo not drawn) ?
AmpC nodet inh: 40.9%

How did CCn1c(SCC(=O)NCC2CCCO2)nc2c(c1=O)SC(C)C2 (stereo not drawn) do in these assays?
AmpC nodet inh: 13.6%

Results for Cc1ccc(-n2nnnc2SCC(=O)c2c(N)n(CC(C)C)c(=O)n(C)c2=O)cc1 ?
AmpC nodet inh: 0.7%

How did Cc1noc(C)c1C(=O)Nc1nc(C23CC4CC(CC(C4)C2)C3)cs1 do in these assays?
AmpC nodet inh: 0.3%

How did Cn1c(C(=O)O)c(CC(=O)N2CCN(Cc3ccccc3)CC2)c2ccccc21 do in these assays?
AmpC nodet inh: 5.9%

How did COC(=O)CSC1=C(C#N)C(c2ccccc2)CC(=O)N1 (stereo not drawn) do in these assays?
AmpC nodet inh: 4.0%

Results for O=C1NC(c2ccc3c(c2)OCO3)Nc2ccccc21 (stereo not drawn) ?
AmpC nodet inh: -6.4%

What do the screens show for `CCN(Cc1cc2cc(C)ccc2[nH]c1=O)S(=O)(=O)c1ccccc1`?
AmpC nodet inh: 22.2%

How did N[C@@H](Cc1c[nH]c2cc([N+](=O)[O-])ccc12)C(=O)O do in these assays?
AmpC nodet inh: -2.1%[5.75 µM]

What do the screens show for `N#Cc1c(/N=C/c2cccs2)sc2c1CCC2`?
AmpC nodet inh: -7.3%

What do the screens show for `C=CCNS(=O)(=O)c1ccc(OCC(=O)OCC)cc1`?
AmpC nodet inh: -0.1%

What do the screens show for `CC1Cc2ccccc2N1C(=O)Cn1nc(C(=O)O)c2ccccc2c1=O` (stereo not drawn)?
AmpC nodet inh: 7.9%

What do the screens show for `COc1ccc(C(=O)NCc2ccccc2OC)c(OC)c1`?
AmpC nodet inh: 21.1%

What do the screens show for `CC(C)NCC(O)Cn1c2c(c3ccccc31)CCc1c-2cnn1-c1ccccc1` (stereo not drawn)?
AmpC nodet inh: 116.4%

Results for COc1ccccc1-n1cnnc1SCC(=O)c1cc(C)n(Cc2cccs2)c1C ?
AmpC nodet inh: 78.2%

What do the screens show for `Cc1cc(NC(=O)c2cc(-c3ccco3)on2)nn1Cc1ccc(Cl)cc1`?
AmpC nodet inh: 15.8µM*

How did Cc1onc(-c2ccccc2)c1C(=O)Nc1cccc2nsnc12 do in these assays?
AmpC nodet inh: -2.8%

What do the screens show for `CCOC(=O)c1c(-c2ccc(C)s2)csc1NC(=O)c1ccco1`?
AmpC nodet inh: -3.5%

How did Cc1ccnc(NC(=O)CCC(=O)N(CC(=O)NC2CCCCC2)Cc2ccc3c(c2)OCO3)c1 do in these assays?
AmpC nodet inh: 95.1%

What do the screens show for `O=C(CCCN1C(=O)CCC1=O)Nc1ccc2c(c1)OCO2`?
AmpC nodet inh: -13.4%

Results for Cc1nc2sc3c(c2c(=O)o1)CCC3 ?
AmpC nodet inh: -2.7%

How did Cc1cc(C(=O)Nc2cccc(O)c2)co1 do in these assays?
AmpC nodet inh: -17.9%

Results for CCOC(=O)C1CCCN(C(=O)C2CCN(c3nnc(-n4cccc4)s3)CC2)C1 (stereo not drawn) ?
AmpC nodet inh: 106.7%

How did Cc1ccc(-c2cc(C(=O)Nc3cccnc3)c3ccccc3n2)o1 do in these assays?
AmpC nodet inh: 30.9%

How did O=C(Nc1cccc(O)c1)c1cccc(S(=O)(=O)N2CCCC2)c1 do in these assays?
AmpC nodet inh: -13.3%

Results for O=C(NCC1CCCO1)c1ccc(/C=N/O)nc1 (stereo not drawn) ?
AmpC nodet inh: -11.8%

An excerpt from above in order of molar mass, ascending.
How did Brc1ccc(-c2cnc(-c3cccs3)o2)cc1 do in these assays?
AmpC nodet inh: 24.2%

What do the screens show for `CN1CCN(S(=O)(=O)c2ccc(Br)s2)CC1`?
AmpC nodet inh: -9.3%

What do the screens show for `CC(C)(C)NC(=O)[C@@H]1CC[C@@H]2[C@@H]3CC[C@@H]4NC(=O)C=C[C@@]4(C)[C@H]3CC[C@]21C`?
AmpC nodet inh: 40.5%[12.8 µM]
